Source: PubChem
StopGo reporter = High Throughput Screening for Foot and Mouth Disease Virus Antivirals. actives 1.2% (n = 410,000). AID 1159524, 2015. human cells with a luciferase reporter of 2A StopGo recoding; control for the full effect not named in the record. Potency, µM (highest dose often 57.9 µM), for inactives: at the top dose signal change, negative = less light; active = well fitted falling curve with a large enough effect; inconclusive = small, poorly fitted or top-dose-only effect; inactive = no such curve, though single readings can be large or run the other way; tested in HEK293T cells; note: % is set by controls: 0 for no effect and ±100 for the full control effect; nearly all actives have a fitted effect of over 45% in size; luciferase light after 4 h
RE007 growth inh = qHTS Assay for Inhibitors of the HIV-1 protein Vpr. S. pombe RE007 Vpr strain, BacTiter-Glo ATP luminescence, 24 h; control for the full effect not named in the record. Potency, µM (doses to about 92.2 µM), for the others: top-dose activity change, negative = less growth. actives 0.21% (n = 360,000). AID 651644, 2012; active = well fitted falling curve with a large enough effect; inconclusive = small, poorly fitted or top-dose-only effect; inactive = no such curve, though single readings can be large or run the other way;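 note: % is set by controls: 0 for no effect and ±100 for the full control effect; nearly all actives have a fitted effect of over 50% in size; the assay follows cell death caused by Vpr and the record does not say whether a fall means rescue or toxicity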
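Fission yeast RE007 carrying one integrated HIV-1 vpr copy, seeded at OD 0.01 in PMG+AL medium with 23 nL pinned compound. Grown 24 h at 30 degrees; viability read by BacTiter-Glo luminescence after 5 min.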
MARV entry inh = qHTS for inhibitors of binding or entry into cells for Marburg Virus | Marburg virus pseudotyped entry inhibition, cell reporter; control for the full effect not named in the record; about a third of the inactives were read at about 46 µM | Potency, µM (titrated, usually from 37.8 µM), without a hit: top-dose activity change, negative = inhibition, actives largely listed as inhibitors | actives 1.8% (n = 300,000) | AID 540276, 2011; active = well fitted inhibition curve with a large enough effect; inconclusive = small, poorly fitted or top-dose-only effect, or effect the other way; inactive = flat fitted curve, though single readings scatter; tested in HEK293 cells; about a fifth of its hits are not listed in these tables; note: % is set by controls: 0 for no effect and ±100 for the full control effect; luciferase read-out
Cruzain noTriton = qHTS Assay for Promiscuous and Specific Inhibitors of Cruzain (without detergent) | Cruzipain (Trypanosoma cruzi), P25779 | purified cruzain, Z-FR-AMC fluorescence, no detergent | Potency, µM, for the others: max response, negative = inhibition, actives largely listed as inhibitors | actives 2.3% (n = 200,000) | AID 1476, 2009;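 note: plate controls were enzyme without inhibitor for no effect and buffer without enzyme for full effect; nearly all actives have a fitted effect of over 40% in size; top concentration of the series not given in the record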
Target sequence (P25779 123-467 limits assumed): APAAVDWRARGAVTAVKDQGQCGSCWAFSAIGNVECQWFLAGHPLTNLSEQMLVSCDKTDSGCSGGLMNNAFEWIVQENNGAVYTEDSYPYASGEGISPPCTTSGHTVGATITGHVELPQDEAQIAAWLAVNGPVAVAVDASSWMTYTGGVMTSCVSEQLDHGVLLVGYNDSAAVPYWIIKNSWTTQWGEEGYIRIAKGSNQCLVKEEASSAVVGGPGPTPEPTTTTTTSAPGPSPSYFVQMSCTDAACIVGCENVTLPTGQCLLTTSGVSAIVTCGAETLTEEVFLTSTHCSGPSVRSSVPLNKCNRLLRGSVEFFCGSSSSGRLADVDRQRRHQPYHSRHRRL
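Detergent-free condition (0.00005% Triton X-100) in acetate buffer pH 5.5 with DTT. 1.5 nM enzyme and compound were pre-mixed 15 min, then 2 uM Z-FR-AMC substrate added; reaction progress from fluorescence change between first and third reads (60 s).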
Cruzain inh Det = qHTS Assay for Promiscuous and Specific Inhibitors of Cruzain (with detergent) | Cruzipain (Trypanosoma cruzi), P25779 | purified cruzain, Z-FR-AMC fluorescence, 0.01% Triton | Potency, µM, without a hit: max response, negative = inhibition, actives largely listed as inhibitors | actives 0.43% (n = 200,000) | AID 1478, 2009;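 note: plate controls were neutral wells for no effect and buffer without enzyme for full effect; nearly all actives have a fitted effect of over 40% in size; top concentration of the series not given in the record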
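Compounds were screened in titration against cruzain (1.5 nM) with 0.01% Triton X-100 to counter colloidal aggregation. Activity was the AMC fluorescence increase over 60 s after adding 2 uM Z-FR-AMC at pH 5.5.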
NS1 function inh = qHTS Assay for Inhibitors of Influenza NS1 Protein Function; S. cerevisiae slowed by influenza A NS1, growth recovery by OD600; Potency, µM (top dose mostly 46.1 µM), without a hit: top-dose activity, positive = more growth; actives 0.4% (n = 270,000); active means well fitted rising curve with a large enough effect; inconclusive means small, poorly fitted or top-dose-only effect; inactive means no such curve, though single readings can be large or run the other way; note: nearly all actives have a fitted effect of over 50% in size
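S. cerevisiae expressing influenza A NS1, grown in glucose, washed, then diluted 1:100 into pH 6.0 -URA galactose medium with 23 nl compound. Growth recovery read as OD600; NS1-free strain serves as control.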
SARS PLpro yeast = qHTS of Yeast-based Assay for SARS-CoV PLP; S. cerevisiae expressing SARS-CoV PLpro, growth rescue; control for the full effect not named in the record; actives 0.19% (n = 330,000); Potency, µM (titrated, usually from 32.9 µM), for the others: at the highest dose activity, positive = growth rescue; active means well fitted rising curve with a large enough effect; inconclusive means small, poorly fitted or top-dose-only effect; inactive means no such curve, though single readings can be large or run the other way; note: 0% is about no effect; nearly all actives have a fitted effect of over 55% in size; growth read by luminescence after 48 h
LASV entry inh = qHTS for Inhibitors of binding or entry into cells for Lassa Virus; Potency, µM (titrated, usually from 37.9 µM), for inactives: at the top dose activity change, negative = inhibition, most hits filed as inhibitors; actives 1.2% (n = 300,000); Lassa virus pseudotype entry inhibition, cell reporter; control for the full effect not named in the record; active means well fitted inhibition curve with a large enough effect; inconclusive means small, poorly fitted or top-dose-only effect, or effect the other way; inactive means flat fitted curve, though single readings scatter; tested in HEK293 cells; note: % is set by controls: 0 for no effect and ±100 for the full control effect; nearly all actives have a fitted effect of over 50% in size; luciferase read-out
An asterisk follows results filed as active; u = inconclusive; x = no result given; & = joins results of further samples; [ ] = dose if it differs, or a comment. Unless noted, calls come from the whole dose curve; as a rule, active = well fitted curve in the direction sought with a large enough effect; inconclusive = small, poorly fitted or top-dose-only effect, or another doubt; inactive = no such curve, though single readings can be large; an effect the other way counts as inactive or inconclusive. Potency is the fitted concentration of half-maximal effect. Compounds were not picked by outcome, and some 4.6% of all compounds hit somewhere here.

SMILES	StopGo reporter	RE007 growth inh	MARV entry inh	Cruzain noTriton	Cruzain inh Det	NS1 function inh	SARS PLpro yeast	LASV entry inh
CC1Cn2c(nnc2-c2cccc(N)c2)S1 (stereo not drawn)	5%	3%	10%	-1%	0.2%	u	18%	-2%
COC(C)c1oc2c(C)c3oc(=O)cc(C)c3cc2c1C (stereo not drawn)	2%	15%	-1%	x	x	x	x	-2%
CCOC(=O)C(CC)n1cnc2sc3c(c2c1=O)CCC3 (stereo not drawn)	-6%	0%	-2%	-6%	1.0%	-3%	-1%	-2%
Cc1ccc(CN2C(=O)/C(=C\c3ccc(C(=O)NCc4cccnc4)cc3)Oc3ccccc32)cc1	x	x	-28%	5%	6.5%	7%	14%	u
CC(Oc1ccc(Cl)cc1)C(=O)N1CCCc2ccccc21 (stereo not drawn)	-3%	11%	x	x	x	-1%	u	x
Cc1nc(C)c(CCNC(=O)c2cccc(Cl)c2)s1	-15%	-10%	-1%	-29%	u	-8%	2%	14%
CCc1ccc(CNC(=O)Cc2ccc(NC(=O)C3=C(C)OCCS3)cc2)cc1	40%[activator]	1%	u	x	x	8%	-4%	u
COC(=O)c1cc(-c2cccs2)nn1-c1ccccc1	0%	5%	u	x	x	-5%	-2%	-24%[46.1 µM]
CCOC(=O)c1c(C)nn(-c2ccc(NC(=O)/C=C/C(=O)O)cc2)c1C	-24%	2%	u	x	x	0%	-6%	u
COc1ccc(/C=C/C(=O)Nc2cccc(F)c2)cc1S(=O)(=O)N1CCOCC1	35µM*	14%	u	x	x	x	0%	5.6µM*
O=C1CN(C(=O)N[C@@H](Cc2ccccc2)C(=O)N[C@H](Cc2ccccc2)C(=O)O)c2ccccc2N1	-13%	12%	x	x	x	u	0%	x
COc1ccc(C2(CNC(=O)c3ccco3)CCOCC2)cc1	-21%	13%	2%	12%	4.5%	-10%	1%	7%
N=C1C(c2ccccc2)=C(O)CN1c1cccc(O)c1	32%[activator]	-4%	0%[46.1 µM]	x	x	x	-3%	-12%
CCC1CCCCN1C(=O)/C=C/c1ccc2c(c1)OCO2 (stereo not drawn)	27%	-19%	x	x	x	-6%	3%	x
COC(=O)CCc1sc(NC2CCCCC2)nc1-c1ccc(OC)cc1	19%	2%	u	u	-25%	-20%	-12%	-5%
CCNc1nc(SCCOc2ccc(Br)cc2)nc(N(C)C)n1	-29%	1%	x	x	x	0%	0%	x
CN(C1CCCCC1)S(=O)(=O)c1ccc(Cl)c(C(=O)O)c1	-11%	-13%	2%	-1%	2.5%	-1%	-2%	0%
CC(C)C(=O)NC(NCC1CCCO1)C(Cl)(Cl)Cl (stereo not drawn)	0%	48%	6%	-4%	0.7%	-2%	0%	9%
CC(C)(C)n1ncc2c(=O)n(CC(=O)NC3CCCCC3)cnc21	19%	11%	u	-1%	0.5%	1%	-9%	1%
O=C(NCCNC(=O)c1ccccn1)c1cccc(F)c1	0%	2%	-13%[46.1 µM]	x	x	1%	1%	-7%[46.1 µM]
S=C(NCc1ccc(Cl)cc1)N1CCN(c2ccccn2)CC1	-1%	-9%	u	x	x	-1%	0%	10%
O=C(COC(=O)c1cccnc1Cl)Nc1ccccc1OC(F)F	-12%	-13%	8%[46.1 µM]	x	x	x	0%	3%[46.1 µM]
Cc1nc2ccc(S(=O)(=O)NCC(=O)Nc3ccc(C)c(Cl)c3)cc2s1	-2%	x	-16%[46.1 µM]	-1%	-2.5%	x	x	20%[46.1 µM]
CCN1CCN(C(=O)c2cc3c(OC)c(OC)c(OC)cc3[nH]2)CC1	2%	-17%	x	x	x	4%	1%	x
Nc1cc(C(=O)O)ccc1Sc1ccccc1C(=O)O	2%	7%	-2%	x	x	x	-2%	7%
CC(=O)c1sc2ccccc2c1OC(=O)c1ccco1	-26%	14%	20%	-7%	-7.0%	-135%	-11%	-17%
Cc1cc(NC(=O)CCCS(=O)(=O)c2nc(-c3cccs3)cc(C(F)(F)F)n2)no1	u	-8%	u	-4%	-8.1%	-4%	6%	u
Cc1ccc2ccccc2c1NC(=O)Cn1nnc(-c2cccnc2)n1	-16%	7%	18%[46.1 µM]	x	x	-5%	1%	-8%
Cc1c(C(=O)OCc2ccc(F)cc2)sc2nc3n(c(=O)c12)CCC3	-2%	13%	8%[46.1 µM]	x	x	x	3%	20%
COC(=O)CNc1nc(-c2cccnc2)nc2ccccc12	-27%	-14%	0%&0%	4%	-3.8%	-53%	-5%	19%
Cc1ccc(-c2nnc(Nc3ccc(CC(N)=O)cc3)c3ccccc23)cc1S(=O)(=O)NCCO	34%[activator]	12%	x	x	x	-1%	-4%	x
CCC1CN(C(=O)N2CCC(C(=O)NCc3cccc(C)c3)CC2)c2ccccc2O1 (stereo not drawn)	u	x	x	-8%	-3.7%	x	x	-6%[46.1 µM]
COc1ccc(-c2nc(CS(=O)CC(=O)NCc3ccco3)c(C)o2)cc1OC (stereo not drawn)	5%	-11%	x	-10%	-3.0%	1%	1%	x
CCOC(=O)C1CCN(C(=O)C2CCN(S(=O)(=O)N3CCC4(CC3)OCCO4)CC2)CC1	-16%	-7%	x	x	x	-10%	9%	x
CCOC(=O)N1CCN(C(=O)CCSc2ccc(Cl)cc2)CC1	27%	-9%	u	3%	0.0%	-1%	15%	u
COc1ccc(N2CCN(C(c3ccccc3OC)c3nnnn3C3CCCC3)CC2)cc1 (stereo not drawn)	-20%	-1%	u	5%	-1.9%	-57%	-23%	u
Cc1c(C)c2ccc(O)c(CN3CCN(C)CC3)c2oc1=O	-17%	-12%	x	x	x	-4%	1%	x
Cc1cc(OC(C(=O)O)c2ccccc2)c2c(C)c(Cc3ccccc3)c(=O)oc2c1 (stereo not drawn)	8%	12%	u	x	x	14%	4%	14%[46.1 µM]
COC1CCCN(Cc2nc(Cc3ccccc3F)no2)C1 (stereo not drawn)	-4%	-4%	1%[46.1 µM]	x	x	5%	-1%	12%[46.1 µM]
O=C(c1ccc(NS(=O)(=O)c2cccc(F)c2)cc1)N1CCCC1	12%	0%	-18%	x	x	7%	-1%	16%
O=S(=O)(Nc1ccc(N2CCCCC2)cc1)c1ccc(F)c(F)c1	-23%	-1%	-4%	2%	-2.3%	-22%	-19%	-23%
CCN(CC)C(=O)COc1ccc2c(-c3ccccc3)cc(=O)oc2c1	-4%	-10%	9%[46.1 µM]	x	x	6%	-6%	u
Cn1c(N2CCOCC2)nc2c1c(=O)n(Cc1ccc(Cl)cc1)c(=O)n2C	-15%	-13%	-18%&-18%	x	x	x	x	26%
CC(=O)C1C(c2ccc(F)cc2)NC(=O)NC1(O)C(F)(F)F (stereo not drawn)	1%	-13%	u	7%	6.0%	2%	2%	12%
Cc1ccn2cc(CCNC(=O)Cc3cccs3)nc2c1	-18%	-13%	x	x	x	4%	0%	x
COCCOc1ccc(C(F)(F)F)cc1NC(=O)c1ccccc1F	-7%	8%	u	u	-0.3%	8%	-9%	7%
CC(=NCCc1ccccc1)c1c(O)n(C)c(=O)n(C)c1=O	-26%	4%	-8%[46.1 µM]	x	x	-4%	-3%	8%[46.1 µM]
COc1ccc(N2CC(C(=O)Nc3ccc(S(=O)(=O)N4CCCC4)cc3)CC2=O)cc1 (stereo not drawn)	-6%	7%	-7%[46.1 µM]	x	x	u	18%	u
C/C(=N/Nc1ccc([N+](=O)[O-])cc1)c1c[nH]c2ccccc12	31%[activator]	-11%	x	x	x	-75%	0%	x
Cc1ccc(S(=O)(=O)Nc2nc3ccc(N)cc3s2)cc1	85%[activator]	3%	-5%[46.1 µM]	x	x	-6%	-1%	-10%[46.1 µM]
CCc1nnc(NS(=O)(=O)c2ccc(N3C(=O)C4CC=C(Cl)CC4C3=O)cc2)s1 (stereo not drawn)	1%	12%	15%	15%	3.0%	u	12%	-2%
O=C1CN(S(=O)(=O)c2ccccc2Cl)CCN1	16%	-15%	u	x	x	x	-4%	9%
CC(C)N(Cc1ccccc1)C(=O)Cn1c(=O)cnc2ccccc21	-18%	9%	x	x	x	8%	-1%	x
NC(=O)C1CCN(C(=S)NCc2ccc3c(c2)OCO3)CC1	2%	-11%	x	x	x	6%	-1%	x
O=C(NC1(C(F)(F)F)N=C(c2ccccc2)NC1=O)c1ccccc1F (stereo not drawn)	-8%	7%	u	6%	2.8%	2%	-1%	1%
CCOC(=O)CC(NC(=O)c1cc2cccc(OC)c2oc1=O)c1cccc([N+](=O)[O-])c1 (stereo not drawn)	-3%	-13%	16%	-2%	-5.5%	17%	20%	-15%
Cc1noc(/C=C/N(C)C)c1S(=O)(=O)N1CCCC(C(=O)NCc2cccs2)C1 (stereo not drawn)	-3%	-11%	x	-3%	-7.9%	u	6%	x

Entries of single compounds as entered above. Values in the order: StopGo reporter | RE007 growth inh | MARV entry inh | Cruzain noTriton | Cruzain inh Det | NS1 function inh | SARS PLpro yeast | LASV entry inh
`CC(C)N(Cc1ccccc1)C(=O)Cn1c(=O)cnc2ccccc21` in the list: -18% | 9% | x | x | x | 8% | -1% | x
`CCOC(=O)CC(NC(=O)c1cc2cccc(OC)c2oc1=O)c1cccc([N+](=O)[O-])c1` (stereo not drawn) in the list: -3% | -13% | 16% | -2% | -5.5% | 17% | 20% | -15%
`COc1ccc(N2CC(C(=O)Nc3ccc(S(=O)(=O)N4CCCC4)cc3)CC2=O)cc1` (stereo not drawn) in the list: -6% | 7% | -7%[46.1 µM] | x | x | u | 18% | u
`CC(=O)C1C(c2ccc(F)cc2)NC(=O)NC1(O)C(F)(F)F` (stereo not drawn) in the list: 1% | -13% | u | 7% | 6.0% | 2% | 2% | 12%
`CC(=NCCc1ccccc1)c1c(O)n(C)c(=O)n(C)c1=O` in the list: -26% | 4% | -8%[46.1 µM] | x | x | -4% | -3% | 8%[46.1 µM]
